E coli growth = inhibitors of Escherichia coli growth; OD600 absorbance (concentration not given with the values); OD600, 23 h; hits give low values; AID 1053175; hit rate 0.21% among 330,000;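 active = OD600 absorbance below the run mean of sample wells minus 3.6 SD, in any replicate, cut at about 0.56 in these data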;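 note: stock transfer was 300 nL into about 60 µL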
HNF4A DNA FP = change in binding of human HNF4 alpha to DNA | P41235 | HNF4a-FITC DNA binding, fluorescence polarization, 1 h | activity change, % at 10 µM | hit rate 0.3% among 360,000; in the data active = activity change above about 30%, passing the limit was not always enough;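 note: controls were the assay level and a saturating level of protein; the project sought stronger binding though the title names inhibitors; some compounds called inactive have numbers as strong as hits; positive values seem to mean higher polarization but the record does not say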
Target sequence (P41235 whole entry, looked up): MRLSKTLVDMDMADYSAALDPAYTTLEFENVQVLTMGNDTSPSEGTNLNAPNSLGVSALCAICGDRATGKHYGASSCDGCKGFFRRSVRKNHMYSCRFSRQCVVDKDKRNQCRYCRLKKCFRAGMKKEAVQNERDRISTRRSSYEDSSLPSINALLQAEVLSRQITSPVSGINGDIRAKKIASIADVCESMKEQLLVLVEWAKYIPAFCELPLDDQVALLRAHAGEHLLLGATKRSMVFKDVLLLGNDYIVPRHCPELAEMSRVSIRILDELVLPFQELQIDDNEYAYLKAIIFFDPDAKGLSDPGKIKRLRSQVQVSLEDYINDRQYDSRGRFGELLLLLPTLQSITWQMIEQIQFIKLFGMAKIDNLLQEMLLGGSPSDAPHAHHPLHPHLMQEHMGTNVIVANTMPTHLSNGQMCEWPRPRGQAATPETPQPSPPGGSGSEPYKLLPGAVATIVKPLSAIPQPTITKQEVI
ALR inh = human ALR oxidase inhibition via reduced H2O2; hit rate 3.8% among 290,000; inhibition, % (no concentration beside the values); purified ALR, DTT oxidation, H2O2 HRP-luminol luminescence; P55789;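 active = mean and each replicate at 75% or more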;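 note: stock transfer was 7.5 nL into about 7.5 µL; 0% = neutral wells and 100% = wells with inactivated enzyme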
Target sequence (P55789 whole entry, looked up): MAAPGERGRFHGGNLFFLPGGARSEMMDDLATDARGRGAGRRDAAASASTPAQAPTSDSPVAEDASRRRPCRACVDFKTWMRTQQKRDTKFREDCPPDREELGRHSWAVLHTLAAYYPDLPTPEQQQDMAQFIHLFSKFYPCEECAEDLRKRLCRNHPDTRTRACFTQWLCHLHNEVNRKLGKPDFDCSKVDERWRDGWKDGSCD
Beta2AR agonist = activates human beta-2 adrenergic receptor causing internalization; P07550; Am2.2-beta2AR cells, FAP receptor internalization, flow cytometry; reference of the scale not given here; hit rate 0.43% among 340,000; response, % (concentration not given with the values);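 active = response above a set limit, near 3 SD of response in nonfluorescent compounds, cut at about 42% in these data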;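 note: stock transfer was 100 nL into about 11 µL; a reference agonist was the positive control; negative values mostly stem from fluorescent compounds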
Ecoli rRNA inh = inhibitors of bacterial rRNA selective over humanized ribosomes; E. coli WT GFP vs humanized-ribosome RFP mutants, fluorescence, 24 h; hits give low values; DMSO median 0, no signal -100; AID 720706; GFP signal change (wild-type ribosome), % (concentration not given with the values); hit rate 1.6% among 350,000;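 active = significant combined selectivity score with lowered wild-type GFP, culture density cut under 30%, mutant RFP and density less affected; inactive = any of these conditions unmet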; note: one replicate is shown; some compounds called inactive have numbers as strong as hits
FGF22 binding = FGF22 (human) thermal shift binding; Q9HCT0; recombinant FGF22 thermal shift, SYPRO orange fluorescence; percent of sucrose octasulfate shift, DMSO zero; calls only at 9.99 µM; hit rate 1.5% among 340,000;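 active = melting point raised past a set limit in the mean and every replicate; three in four hits are not shown here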
UCH37 inh = human UCH37 deubiquitinating enzyme inhibition; inhibition, % (no concentration beside the values); AID 588478; hit rate 0.33% among 330,000; purified proteasome/UCH37, Ub-AMC cleavage fluorescence;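 active = mean of two replicates above 20%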;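 note: 0% = compound-free wells with enzyme and 100% = wells lacking proteasome; stock transfer was 100 nL into about 20 µL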
Target sequence (Q9Y5K5 whole entry, looked up): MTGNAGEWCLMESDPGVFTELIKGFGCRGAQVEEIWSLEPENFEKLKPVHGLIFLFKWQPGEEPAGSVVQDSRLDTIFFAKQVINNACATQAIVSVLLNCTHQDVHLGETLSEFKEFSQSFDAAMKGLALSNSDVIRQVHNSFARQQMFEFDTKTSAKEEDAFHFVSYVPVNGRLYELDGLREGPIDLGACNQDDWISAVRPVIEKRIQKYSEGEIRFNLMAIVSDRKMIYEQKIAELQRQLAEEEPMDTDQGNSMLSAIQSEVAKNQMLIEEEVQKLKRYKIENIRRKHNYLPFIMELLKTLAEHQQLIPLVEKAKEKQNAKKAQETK
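Material: Human UCH37 enzyme supplied as purified proteasome complex | Schedule: 30 min preincubation with enzyme, 25 min cleavage at room temperature | Detection: AMC fluorescence 355/460 nm | Measure: % inhibition of Ub-AMC cleavage fluorescence | Controls: Wells without proteasome as full block, compound-free enzyme plus substrate as uninhibited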
Ecoli rRNA inh OD600 = second read-out of Ecoli rRNA inh, no call of its own (marks repeat the call); OD600 change, %; measured here: OD600 growth;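 optical density of the mix in the first replicate; 0 = DMSO median and -100 = no signal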
Ecoli rRNA inh RFP = also measured in Ecoli rRNA inh; calls as there; RFP signal change, %; measured here: RFP humanized mutant strains;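 first replicate; 0 = DMSO median and -100 = no signal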
Numbers without * were called inactive; i = inactive; · = no result given; & = joins results of further samples. An excerpt; count on the stated rates, not on these rows.

Preview, two compounds:
no.	E coli growth	HNF4A DNA FP	ALR inh	Beta2AR agonist	Ecoli rRNA inh	Ecoli rRNA inh OD600	Ecoli rRNA inh RFP	FGF22 binding	UCH37 inh	smiles
1	0.65	-0.8	0	2	13	9	2.5	i	1.2	Cn1cc(CN2CCCC(CO)(Cc3ccccc3)C2)cn1 (configuration not stated)
2	·	4.1	1	5	8	4	-1.2	i	1.0	OCC[C@@H]1C[C@H](O)[C@@H](O)[C@@]2(Cc3ccccc3CO2)O1

Results, from the first entry:
no.	E coli growth	HNF4A DNA FP	ALR inh	Beta2AR agonist	Ecoli rRNA inh	Ecoli rRNA inh OD600	Ecoli rRNA inh RFP	FGF22 binding	UCH37 inh	smiles
1	0.65	-0.8	0	2	13	9	2.5	i	1.2	Cn1cc(CN2CCCC(CO)(Cc3ccccc3)C2)cn1 (configuration not stated)
2	·	4.1	1	5	8	4	-1.2	i	1.0	OCC[C@@H]1C[C@H](O)[C@@H](O)[C@@]2(Cc3ccccc3CO2)O1
3	0.75	0.8	1	0	·	·	·	·	1.1	O=C(COc1ccc(F)cc1)OCCN1CCOCC1
4	0.71	1.2	-3	7	8	2	2.6	i	-2.6	O=C(c1ccc(F)cc1F)N1CCN(c2n[nH]c(=O)[nH]c2=O)CC1
5	·	-6.6	·	-23	9	4	-4.1	i	·	O=C(N/N=C/c1ccco1)c1ccc(NC(=O)c2ccc(Cl)cc2)cc1
6	0.69	-0.5	-6	-11	1	2	-21	i	2.3	CC(=O)N(Cc1nc2sc(C)c(C)c2c(=O)[nH]1)C1CCCC1
7	0.69	4.7	-1	2	23	2	-0.6	i	3.8	CCc1nnc(NC(=O)CSc2ccc(-c3ccccc3OC)nn2)s1
8	0.71	3.5	-29	1	-7	-3	0.3	i	-49	CCN1C(=O)/C(=C2/Sc3ccc(OC)cc3N2C)SC1=Nc1ccc(OC)cc1
9	0.73	5.8	-1	7	·	·	·	·	-0.3	CC(C)CCNC(=O)C(c1ccncc1)N(Cc1cccs1)C(=O)Cn1nnc(-c2ccc(F)cc2)n1 (configuration not stated)
10	0.68	-1.7	-10	-3	11	9	-0.4	i	4.1	CNC(=O)C(NC(=O)c1ccccc1)=C(C)C
11	0.66	-1.0	1	-1	2	8	0.1	i	0.3	O=C(O)c1ccccc1C(=O)O
12	0.72	-1.6	-8	-8	10	3	0.1	i	2.3	O=C1c2ccccc2N(Cc2ccc(Cl)cc2)C2=NCCN12
13	0.71	-3.1	8	3	9	-3	0.9	i	1.5	CCOc1ccccc1N1CCN(CC(=O)N(CC(C)C)c2c(N)n(CC(C)C)c(=O)[nH]c2=O)CC1
14	0.67	3.6	-24	-10	-7	3	-1.0	i	-1.3	CCn1cc(C(=O)OCC(=O)c2ccc(Cl)cc2)c(=O)c2ccc(C)nc21
15	0.66	-1.4	0	-2	-9	-25	17	i	2.1	Cc1ccc(CCNC(=O)CN2C(=O)COc3ccc(S(=O)(=O)N4CCCCC4)cc32)cc1
16	0.68	-4.7	2	7	·	·	·	·	-11	O=C(CSc1nc(-c2ccccc2)c(-c2ccccc2)[nH]1)N1CCN(S(=O)(=O)c2ccccc2)CC1
17	0.66	4.1	-5	23	2	1	2.0	i	0.7	O=C(Nc1ccc(Oc2ccccc2)nc1)C1CCCCN1Cc1ccco1 (configuration not stated)
18	0.74	3.2	9	2	-4	0	1.6	i	1.1	CCC(C)NS(=O)(=O)c1ccc(S(=O)(=O)N(CCc2ccc(OC)c(OC)c2)Cc2cccs2)cc1 (configuration not stated)
19	0.68	-0.4	-5	-2	·	·	·	i	4.4	COc1ccc2c(c1)C(=O)C(=O)N2
20	0.66	-4.0	-3	0	·	·	·	·	4.5	CCc1ccc2nc(N(CCN(C)C)C(=O)c3ccc4ccccc4c3)sc2c1
21	0.71	1.2	-1	-4	18	17	2.6	i	5.3	CCCCC1(C(=O)OCC)CC(CSC(=N)N)OC1=O (configuration not stated)
22	0.72	3.4	·	-11	-5	-5	-2.0	i	-2.1	Cc1nnc(SCC(=O)Nc2cc(S(C)(=O)=O)ccc2Cl)n1Cc1ccccc1
23	·	-2.1	·	·	29	10	2.1	i	·	CC(C)n1nnnc1C1c2ccccc2C(=O)N1C1CC1 (configuration not stated)
24	·	-7.5	-11	6	4	8	2.9	i	0.2	C=CCOC(=O)C1=C[C@H](c2coc3ccccc3c2=O)C[C@H](OCCCCO)O1
25	0.71	-2.8	-1	-8	·	·	·	·	0.6	Cc1cccc(NC(=O)CN2C(=O)CNC2=O)c1
26	·	2.5	·	·	6	3	-0.5	i	·	O=C(NC1CCCCC1)c1nc(C2CCNCC2)oc1-c1ccccc1
27	·	0.3	0	14	·	·	·	·	1.5	CSCC[C@H](NC(=O)NCc1ccccc1F)C(=O)O
28	0.73	-0.6	1	3	·	·	·	·	4.3	O=C(c1coc(=O)c2ccccc12)N1CCN(Cc2ccccc2)CC1
29	0.7	2.3	·	8	-26	32	-2.2	i	0.4	CN(CC(=O)Nc1ccccc1[N+](=O)[O-])Cc1ccc(Br)cc1
30	0.72	4.8	0	-1	·	·	·	·	1.4	COc1cc(/C=C2\SC(N)=NC2=O)ccc1OCC(=O)Nc1ccc(C)cc1
31	0.68	-13	-19	-7	9	6	0.6	·	6.6	COc1ccc(CN2C(=O)CCC(C(=O)O)C2c2ccccc2)cc1 (configuration not stated)
32	0.66	0.1	-2	3	6	13	1.7	i	1.1	O=C(CN1C(=O)C(=O)N(Cc2ccco2)C1=O)Nc1ccccc1
33	0.67	1.7	41	-3	4	-13	0.4	i	2.7	CN1CCN(NC(=O)c2ccc(Cl)c(S(=O)(=O)Nc3ccc(Cl)cc3)c2)CC1
34	·	-0.4	32	0	·	·	·	·	·	COc1cccc(/C=N/NC(=O)C(=O)NCc2cccnc2)c1O
35	0.6	2.8	31	0	·	·	·	·	0.2	CCC(=O)Nc1cc(C(F)(F)F)ccc1N1CCCC1
36	0.69	3.3	-12	-1	2	-2	-0.7	i	1.7	CC(=O)Nc1cc2nc(C)n(Cc3ccccc3)c2nc1C
37	0.65	-2.2	-1	-8	3	-8	-3.7	i	19	Cc1c(C(=O)/C=C/N(C)C)nnn1-c1ccc(Cl)cc1C#N
38	·	-0.2	9	-8	3	6	3.0	i	·	CCc1ccc(/C(C)=N/NC(=O)c2ccc(-n3cnnn3)cc2)cc1
39	0.64	2.5	-10	9	·	·	·	·	-0.8	O=C(O)Cn1nc(-c2ccccc2)oc1=O
40	0.68	·	8	·	·	·	·	·	1.8	O=C1c2ccccc2C(=O)N1Cc1nc2ccccc2c(=O)n1Cc1ccco1
41	0.68	3.3	0	2	·	·	·	·	-1.9	Cc1ccccc1NC(=O)Cn1nnc(-c2ccc(N3CCOCC3)cc2)n1
42	0.69	0.9	-5	-6	6	12	-0.9	i	-2.9	COc1ccccc1CC(NC(C)=O)C(=O)NC1CCN(S(=O)(=O)c2ccc(NC(C)=O)cc2)CC1 (configuration not stated)
43	·	23	·	·	-5	1	2.0	i	·	C/C=C/c1cccc(-c2nc(C(=O)NC3CCC3)cc3c2[C@@H](CCO)N(S(=O)C(C)(C)C)C3)c1 (some centres not stated)
44	0.73	0.1	-6	-2	9	4	0.9	i	3.5	O=C(CN1C(=O)NC2(CCCCCCC2)C1=O)NCc1ccccc1
45	0.72	-6.4	·	1	·	·	·	·	3.1	C=CCn1c(=O)c2ccccc2n2c(SCc3cc(=O)n4ccsc4n3)nnc12

A second format for part of the listing above.
Order of results – E coli growth, HNF4A DNA FP, ALR inh, Beta2AR agonist, Ecoli rRNA inh, Ecoli rRNA inh OD600, Ecoli rRNA inh RFP, FGF22 binding, UCH37 inh
(31) COc1ccc(CN2C(=O)CCC(C(=O)O)C2c2ccccc2)cc1 (configuration not stated)
→ 0.68, -13, -19, -7, 9, 6, 0.6, ·, 6.6
(32) O=C(CN1C(=O)C(=O)N(Cc2ccco2)C1=O)Nc1ccccc1
→ 0.66, 0.1, -2, 3, 6, 13, 1.7, i, 1.1
(33) CN1CCN(NC(=O)c2ccc(Cl)c(S(=O)(=O)Nc3ccc(Cl)cc3)c2)CC1
→ 0.67, 1.7, 41, -3, 4, -13, 0.4, i, 2.7
(34) COc1cccc(/C=N/NC(=O)C(=O)NCc2cccnc2)c1O
→ ·, -0.4, 32, 0, ·, ·, ·, ·, ·
(35) CCC(=O)Nc1cc(C(F)(F)F)ccc1N1CCCC1
→ 0.6, 2.8, 31, 0, ·, ·, ·, ·, 0.2
(36) CC(=O)Nc1cc2nc(C)n(Cc3ccccc3)c2nc1C
→ 0.69, 3.3, -12, -1, 2, -2, -0.7, i, 1.7
(37) Cc1c(C(=O)/C=C/N(C)C)nnn1-c1ccc(Cl)cc1C#N
→ 0.65, -2.2, -1, -8, 3, -8, -3.7, i, 19
(38) CCc1ccc(/C(C)=N/NC(=O)c2ccc(-n3cnnn3)cc2)cc1
→ ·, -0.2, 9, -8, 3, 6, 3.0, i, ·

Next part:
no.	E coli growth	HNF4A DNA FP	ALR inh	Beta2AR agonist	Ecoli rRNA inh	Ecoli rRNA inh OD600	Ecoli rRNA inh RFP	FGF22 binding	UCH37 inh	smiles
46	0.67	3.1	-12	-16	-10	-17	0.6	i	2.9	CS(=O)(=O)N(CC(=O)NCCSCc1cccc(Cl)c1)c1ccccc1F
47	0.67	1.4	-8	-2	-6	-11	0.2	i	-0.7	Cc1ccc(CNC(=O)c2ccc(CS(=O)(=O)c3ccccc3C)o2)cc1
48	0.64	-2.0	-9	-4	·	·	·	·	0.7	Cc1cccc(NC(=O)CC2C(=O)NCCN2C(=S)Nc2ccccc2)c1 (configuration not stated)
49	0.65	13	-1	0	·	·	·	i	-0.2	COc1ccc(C(CNC(=O)c2cccc(S(=O)(=O)N(C)c3ccccc3)c2)N2CCCC2)cc1 (configuration not stated)
50	0.69	1.1	·	-3	8	2	15	i	3.5	CC(=O)c1c(C)oc2ccc(N(C(C)=O)S(=O)(=O)c3ccc(Br)cc3)cc12
51	0.69	1.5	-1	-1	9	7	-2.4	i	5.0	CCN1CCN(S(=O)(=O)c2ccc(S(=O)(=O)NCC3CCCO3)cc2)CC1 (configuration not stated)
52	·	4.6	·	·	2&-5	5&-1	-1.7&1.6	i	·	CCCC#Cc1cnc2c(c1)C(=O)N([C@H](C)CO)C[C@@H](C)[C@@H](CN(C)C(=O)Nc1cccc(F)c1)O2
53	0.75	25	-1	-11	·	·	·	·	8.7	O=C(/C=C(\O)c1ccc(Cl)cc1)C(=O)NNC(=O)C(O)(c1ccccc1)c1ccccc1
54	0.65	3.7	-8	3	16	8	4.9	i	-0.4	Cc1ccc2nc(NC(=O)COC(=O)c3cccnc3)sc2c1
55	0.68	2.9	-2	-1	·	·	·	·	2.6	CC1CCCN(CCC(=O)Nc2ccc(Br)cc2)C1 (configuration not stated)
56	0.69	-7.8	-5	19	14	27	-4.9	i	0.8	CC(C)(C)OC(=O)N1CCN(C(=O)c2[nH]cnc2C(=O)Nc2ccon2)CC1

Assay outcomes as filed in PubChem BioAssay.
